From PubChem
Bst PK mod – pyruvate kinase (B. stearothermophilus) modulation | partly purified Bacillus stearothermophilus pyruvate kinase, luminescence ATP production; ribose 5-phosphate activator present at AC10 | Potency, µM | hit rate 1.2% among 51,000; in the data active means potency below about 11 µM; inconclusive means mostly about 12 µM to 25 µM; inactive means weaker than that;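 the screen sought inhibitors and activators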;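 also: potency is read from the fitted curve at half-maximal effect; scaled between full activation by ribose 5 phosphate and full inhibition by luteolin; about four in five hits inhibit and the cells do not say which; series up to 57 µM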
YjeE inh – YjeE (TsaE) inhibition, E. coli | P0AF67 | purified YjeE, fluorescence polarisation of a bound ADP probe | Potency, µM | hit rate 0.05% among 71,000; active = well fitted falling curve; inconclusive = weaker or top-dose-only fall, or a rising curve; inactive = flat or poorly fitted curve;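 also: top concentration of the series not given in the record; excess ADP was the control for the full effect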
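Purified YjeE (10 uM) with BODIPY Texas Red-labeled ADP probe (2 uM); compounds pin-transferred, 15 min at room temperature. Binding inhibition read as decreased fluorescence polarization; ADP titration as control.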
* marks the source's active call; other numbers are inactive results; i = inactive; . = not tested or not shown. Some of the compounds tested. The share of hits here may be higher or lower than overall.

SMILES	Bst PK mod	YjeE inh
CC1(C)NC(=O)N(c2ccccc2Cl)C1(C)NO (stereo not drawn)	>57	i
Cc1ccc(C(=O)Nc2c(C(=O)NCc3ccco3)cnn2-c2ccccc2)cc1	>57	i
Cc1onc(-c2ccccc2Cl)c1C(=O)NCc1nc(-c2ccccc2)no1	>57	i
CCC(C)c1ccccc1NC(=O)c1cccnc1 (stereo not drawn)	>57	i
CC1CCN(C(=O)Cc2nn(C)c(=O)c3ccccc23)CC1	>57	i
CCOc1ccccc1NC1c2ccccc2C(=O)N1c1cccnc1 (stereo not drawn)	>57	i
CC(NC(=O)c1ccncc1)C(c1cccs1)N1CCOCC1 (stereo not drawn)	>57	i
Cc1cc(C(=O)Nc2cccc(C(=O)O)c2)oc1C	i	i
C=CCn1c(=N)c(C(=O)OCC)cc2c(=O)n3cccc(C)c3nc21	>11	.
COc1ccc(C(C)C)cc1S(=O)(=O)NCc1ccccn1	>57	i
COc1ccc(C(=O)c2cnc(C(C)C)n2C)cc1	.	i
CCOC(=O)N1CCC(NC(=O)CN2C(=O)CSc3nc(C)cc(C)c32)CC1	.	i
Cc1cccc(S(=O)(=O)C(C#N)c2nc3ccccc3nc2N2CC(C)OC(C)C2)c1 (stereo not drawn)	>57	i
COCCn1c(SCC(=O)N(C(C)C)C(C)C)nnc1-c1cc2ccccc2cc1O	>57	i
CCOc1ccc(OCC)c(NC(=O)CN(C)S(=O)(=O)c2cnc[nH]2)c1	.	i
CSc1nc2nc3c(c(=O)n2[nH]1)CN(Cc1ccccc1)CC3	>57	i
COc1cccc(-n2c(SCC(=O)N3CCCC3)nc3c([nH]c4ccccc43)c2=O)c1	.	i
Cc1ccc2cc(CN(Cc3ccco3)S(=O)(=O)c3c(C)ccc4nsnc34)c(=O)[nH]c2c1	>57	i
O=C(CSc1nnc(CCCO)n1-c1ccccc1)NCCc1ccccc1	>57	i
CCOc1ccccc1N(CC(=O)Nc1ccccc1C(=O)O)S(C)(=O)=O	.	i
CNS(=O)(=O)c1cccc(C(=O)OCc2cc(Cl)cc3c2OCOC3)c1	>57	i
Cc1ccc(C)c(/C(O)=C2\C(=O)C(=O)N(CCCN(C)C)C2c2cccnc2)c1 (stereo not drawn)	>57	i
COc1ccc(Oc2ncc3nc(C)c(=O)n(C[C@H]4CCCO4)c3n2)cc1	.	i
COc1ccc(CC2S/C(=C(\C#N)C(=O)NCc3ccco3)N(c3ccc(C)cc3)C2=O)cc1 (stereo not drawn)	>57	i
CCC(C)NC(=O)Cn1c(=O)n(-c2ccccc2)c(=O)c2ccc(C(=O)NCc3ccco3)cc21 (stereo not drawn)	>57	i
Continued:
SMILES	Bst PK mod	YjeE inh
CCC(C)NC(=O)CS(=O)(=O)Cc1nc(-c2cccc(OC)c2)oc1C (stereo not drawn)	.	i
Clc1ccc(Nc2ncnc3c2cnn3-c2ccccc2)cc1	.	i
Cn1c(=O)n(Cc2ccccc2)c(=O)c2c1nc1n2CCCN1C1CCCCC1	>57	i
Cn1c(SCC(=O)NCc2cccs2)nnc1-c1ccc(S(=O)(=O)N2CCCC2)cc1	>57	i
O=C(COC(=O)c1cccnc1)Nc1cccc(Cl)c1	>57	i
CCOC(=O)c1ccc(N=C2NC(=O)CS2)cc1	>57	i
COc1ccc(S(=O)(=O)N2CCN(c3c(C)cccc3C)CC2)cc1OC	.	i
CC1=C(C(=O)N2CCN(C(=O)c3ccco3)CC2)C2(CCC(C)CC2)OC1=O (stereo not drawn)	.	i
COc1ccc2c(C)cc(SCC(=O)N3CCOCC3)nc2c1	>57	i
Cc1c(CCC#N)c(N2CCN(C3CCCCC3)CC2)n2c(nc3ccccc32)c1C#N	>26	.
CCCCN1CCc2c([nH]c3c(C)cccc23)C1=O	>57	i
COCCNC(=O)CCSCc1ccccc1F	>57	i
Cn1cccc1Cc1nnc(SCC(=O)NCc2ccco2)n1-c1ccc(F)cc1	>57	i
Cc1sc(NC(=O)c2ccco2)c(C(c2cccnc2)N2CCN(c3ccc(F)cc3)CC2)c1C (stereo not drawn)	.	i
CCN1CCCC1Cn1cnc2c([nH]c3cccc(Cl)c32)c1=O (stereo not drawn)	.	i
COc1c2c(nc3ccccc13)OC(C(C)(O)COC(C)=O)C2 (stereo not drawn)	.	i
C=CCn1c(NCCO)nc2c1c(=O)n(C)c(=O)n2C	>57	i
O=C(Nc1ccc(OC(=O)c2ccco2)cc1)c1ccco1	i	i
Cc1n[nH]c(C)c1N1C(=O)c2cccc3c(N4CCCCCC4)ccc(c23)C1=O	.	i
C=CCNC(=O)c1ccc(C)c(Br)c1	.	i
CCOCCn1c(N2CCN(c3ccc(OC)cc3)CC2)nc2c1c(=O)[nH]c(=O)n2C	>57	i
CCc1c(C(=O)NCc2cnn(C)c2)csc1C	>57	i
COc1ccccc1CNC(=O)C1CCN(S(=O)(=O)N2CCCCC2)CC1	>57	i
CCOC(=O)c1ccc(CNC(=O)Cn2nnc(-c3ccc(C)cc3)n2)o1	>57	i
Cc1ccc2c(c1)c1c(n2CC(O)Cn2c(C)nc3ccccc32)C(=O)CCC1 (stereo not drawn)	.	i

Three records picked at random from the list so far:
SMILES	Bst PK mod	YjeE inh
CCOC(=O)c1ccc(CNC(=O)Cn2nnc(-c3ccc(C)cc3)n2)o1	>57	i
Cc1ccc2c(c1)c1c(n2CC(O)Cn2c(C)nc3ccccc32)C(=O)CCC1 (stereo not drawn)	.	i
COc1ccc2c(C)cc(SCC(=O)N3CCOCC3)nc2c1	>57	i

Filtered by structure: the entries above with a Cl atom (six)
SMILES	Bst PK mod	YjeE inh
CC1(C)NC(=O)N(c2ccccc2Cl)C1(C)NO (stereo not drawn)	>57	i
Cc1onc(-c2ccccc2Cl)c1C(=O)NCc1nc(-c2ccccc2)no1	>57	i
CNS(=O)(=O)c1cccc(C(=O)OCc2cc(Cl)cc3c2OCOC3)c1	>57	i
Clc1ccc(Nc2ncnc3c2cnn3-c2ccccc2)cc1	.	i
O=C(COC(=O)c1cccnc1)Nc1cccc(Cl)c1	>57	i
CCN1CCCC1Cn1cnc2c([nH]c3cccc(Cl)c32)c1=O (stereo not drawn)	.	i

(list continues)
SMILES	Bst PK mod	YjeE inh
CCC(CC)NCc1ccc(OC)cc1OC	>57	i
C=CCOc1ccc(CNc2nn[nH]n2)cc1	>57	i
Cn1c(=O)oc2cc(S(=O)(=O)NCCN3CCc4ccccc4C3)ccc21	.	i
O=C(Cn1cnc2c(oc3ccccc32)c1=O)NCCc1ccccc1	>57	i
COc1ccccc1-n1cc(C(=O)NCC(=O)N2CCN(c3ccccc3)CC2)c2ccccc2c1=O	3.7*	i
Cc1cccc(Nc2ncc3c(n2)CC(c2ccco2)CC3=O)c1 (stereo not drawn)	>57	i
COC(=O)c1nc2n(n1)C(c1cc(OC)ccc1OC)C(C(=O)OC1CCCCC1)=C(C)N2 (stereo not drawn)	>57	i
O=C(NCC(c1cccnc1)N1CCN(c2ccc(F)cc2)CC1)c1ccc2c(c1)OCO2 (stereo not drawn)	>57	i
c1ccc(N2CCN(CCCOc3ccc4c(c3)OCO4)CC2)cc1	.	i
CC1(C)CC(=O)C2=C(C1)N(Cc1ccco1)C(=O)NC2(C(F)(F)F)C(F)(F)F	>57	i
COc1cccc(-n2c(SCC(N)=O)nc3c([nH]c4ccccc43)c2=O)c1	.	i
Cc1cccc(Nc2nc3c(c(=O)n(C)c(=O)n3C)n2CC(O)CO)c1 (stereo not drawn)	>57	i
CCCOc1ccc(N2C(=O)CC(SCCN)C2=O)cc1 (stereo not drawn)	.	i
O=C(Nc1nccs1)c1ccc(S(=O)(=O)NCc2cccs2)cc1	>57	i
O=C(O)COc1ccc(OCCNC[C@@H](O)COc2ccccc2)cc1	.	i
Cc1nn(C)cc1CNC(=O)CCC(=O)O	>57	i
CCCc1cc(=O)n2[nH]c(NCc3c(F)cccc3Cl)nc2n1	>57	i
c1ccc2c(Oc3ccc4c(c3)OCO4)nncc2c1	i	i
CCOC(=O)c1ccc(NS(=O)(=O)c2ccc3c(c2)CCCN3C(C)=O)cc1	>57	i
COC(=O)C1CCC(C)(C(=O)Nc2ccccc2)C1(C)C (stereo not drawn)	>57	i
CCCCn1nnnc1SCC(=O)Nc1ccc(F)cc1	>57	i
c1cncc(-c2nc(N3CCNCC3)c3ccccc3n2)c1	.	i
COc1cccc(OC)c1C(=O)n1nc(C)cc1C	>57	i
CCCCOC(=O)C1=C(C)NC2(O)c3ccccc3C(=O)C12O (stereo not drawn)	>57	i
CCCOc1ccc2oc(=O)c3c(c2c1)CCCN3C(=O)CN1CCc2ccccc2C1	>57	i

Some of the entries so far, with two lines to a compound:
Fields: Bst PK mod | YjeE inh
> Cc1cccc(S(=O)(=O)C(C#N)c2nc3ccccc3nc2N2CC(C)OC(C)C2)c1 (stereo not drawn)
    >57 | i
> COCCn1c(SCC(=O)N(C(C)C)C(C)C)nnc1-c1cc2ccccc2cc1O
    >57 | i

(listing goes on)
SMILES	Bst PK mod	YjeE inh
COc1ccc2nc(N3CCCC3)c(C#N)cc2c1	>57	i
CCCNC(=O)N1CCN(S(=O)(=O)c2ccc(C)cc2)CC1	>57	i
NCCn1c(=O)c(CCc2ccccc2)nc2cncnc21	.	i
CC(=O)c1cccc(-n2nnnc2SCC(=O)Nc2ccccc2N2CCCCC2)c1	>57	i
CCOC(=O)Nc1cccc(OCC(=O)Nc2ccc(OC)cc2OC)c1	>57	i
O=S(=O)(c1ccccc1)N1CCN(c2nnnn2-c2ccccc2)CC1	>57	i
CCCCn1c(C(C)NC(=O)CC)nc2ccccc21 (stereo not drawn)	.	i
COc1ccc(S(=O)(=O)Nc2cc(C)on2)cc1OC	>57	i
CCOCCCN(C(=O)Nc1ccc(CC)cc1)C1CCN(C(C)=O)CC1	>57	i
CCN(CC)C(=O)CN1CCN(c2ccccc2F)CC1	>57	i
Cc1oc2cc3c(C(=O)N4CCCCC4)c(C)oc3cc2c1C(=O)N1CCCCC1	>57	i
CN1CCN(S(=O)(=O)c2ccc(-c3ccc(Cl)cc3)cc2)CC1	>57	i
CN(C)CCNc1c2c(c(C#N)c3nc4ccccc4n13)CCCC2	>57	i
CCc1ccc2oc(=O)cc(CN3CCN(CCO)CC3)c2c1	>57	i
CS(=O)(=O)c1ccc(N2CCN(C3CC(=O)NC3=O)CC2)cc1 (stereo not drawn)	>57	i
CC(C)c1ccc(-c2nc3c([nH]2)c(=O)n(C)c(=O)n3C)cc1	>57	i
COc1ccc(-c2nc(-c3cccc(C(F)(F)F)c3)no2)cc1OC	.	i
CC1=C(C(=O)OCc2ccccc2)C(c2ccc(N3CCOCC3)cc2)NC(=O)N1 (stereo not drawn)	.	i
COc1cccc(NC(=O)CN(C)S(=O)(=O)c2ccc(C)cc2)c1	>57	i
CN(C)c1ccc(C(=O)C(O)c2ccc(C(C)(C)C)cc2)cc1 (stereo not drawn)	.	i
COc1cccc(Nc2ncc3nc(-c4ccc(Cl)cc4)c(=O)n(C[C@H]4CCCO4)c3n2)c1	.	i
CCN(c1ccc2c(c1)OCO2)S(=O)(=O)c1cc(Br)cc2c1N(C(=O)C1CC1)CC2	>57	i
CCOC(=O)C1CCN(c2c(N3CCN(Cc4ccccc4)CC3)c(=O)c2=O)CC1	.	i
Clc1cccc2sc(N3CCOCC3)nc12	>57	i
Clc1ccccc1-c1nccc(NCc2ccccc2)n1	.	i

Some of the entries so far, with each value named.
SMILES: Clc1ccccc1-c1nccc(NCc2ccccc2)n1
  Bst PK mod = .
  YjeE inh = i
SMILES: NCCn1c(=O)c(CCc2ccccc2)nc2cncnc21
  Bst PK mod = .
  YjeE inh = i

The listing continues:
SMILES	Bst PK mod	YjeE inh
CC(=O)Nc1ccn(-c2ccccc2)n1	>57	i
Fc1ccc(NCc2cccnc2)cc1	>57	i
O=c1cc(N2CCN(c3ccccc3)CC2)[nH]c(=O)n1-c1ccccc1Cl	>57	i
COc1ccccc1N1CCN(C(=O)c2ccoc2C)CC1	>57	i
CCN(CC)CCn1c(=S)[nH]c2ccccc2c1=O	.	i
C1=C(c2cccc3ccccc23)N2CCN=C2S1	>57	i
COc1cccc2oc(-c3ccc(O)cc3)cc(=O)c12	.	i
CCN(CC)c1ccc(CN(C(=O)c2cc(OC)c(OC)c(OC)c2)C2CCS(=O)(=O)C2)cc1 (stereo not drawn)	>57	i
COc1ccccc1N1CCN(C(=O)CSc2nnc3n2C(C)(C)Cc2ccccc2-3)CC1	>57	i
Cc1ccc2c(c1)N(CC(=O)NC1CCCc3ccccc31)C(=O)CO2 (stereo not drawn)	>57	i
CCOc1c2c(nc3ccc(Cl)cc13)CCC2	>57	i
CCOc1ccc(OCC)c(NS(=O)(=O)c2ccc3c(c2)n(C)c(=O)c(=O)n3C)c1	>57	i
COC(=O)C1=C(C(C)=O)C(c2ccc(C(=O)OC)cc2)n2nnnc2N1 (stereo not drawn)	>57	i
N[C@]1(C(=O)O)CCc2cc(P(=O)(O)O)ccc21	.	i
O=C(Nc1ccc(Cl)cn1)c1cc(S(=O)(=O)N2CCCCC2)ccc1Cl	>57	i
Cc1cc2cc(CN(Cc3ccc4c(c3)OCO4)Cc3nnnn3C3CCCC3)c(=O)[nH]c2cc1C	>57	i
O=C(CSc1nnc(Cc2ccccc2)n1C1CCCCC1)N1CCOCC1	>57	i
COc1ccc(-n2c(Cc3cccn3C)nnc2SCC(=O)Nc2cc(C)cc(C)c2)cc1	.	i
O=C(CCCCC(=O)Nc1c(I)cc(I)c(C(=O)O)c1I)Nc1c(I)cc(I)c(C(=O)O)c1I	.	i
CC(=O)OCC(OC(C)=O)C(OC(C)=O)C(OC(C)=O)C(=O)Nc1ccccc1C (stereo not drawn)	>57	i
CC(=O)c1ccc(N2CCN(C(=O)c3ccco3)CC2)c(F)c1	>57	i
CCCCc1cc2c(c(NC(C)=O)n1)c(=O)oc1ccccc12	.	i
